Assay outcomes from PubChem BioAssay.
gsp ag – activates gsp, the McCune-Albright syndrome mutation; gsp mutant cells, cAMP HTRF, 30 min; control for the full effect not named in the record; Potency, µM (doses to about 76.9 µM), without a hit: at the highest dose activation (cAMP increase), most hits filed as activators; 340,000 tested, 0.13% active; AID 624287; active = well fitted activation curve with a large enough effect; inconclusive = small, poorly fitted or top-dose-only effect, or another doubt; inactive = no such curve, though single readings can be large or run the other way; cell line not stated here;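 further: phosphodiesterase inhibitor Ro 20-1724 added with compounds to block cAMP breakdown; potency means the concentration at half of the fitted maximal effect; nearly all actives have a fitted effect of over 60% in size; about a fifth of the inactives were tested at one dose only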
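Cells in DMEM/10% FBS with G418 were pretreated with compounds in DMSO plus […] (300 uM stock) for 30 min at 37C. cAMP was measured by HTRF (cAMP-d2 plus anti-cAMP antibody-K) after 30 min at room temperature.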
gsp antagonist – antagonizes gsp, the McCune-Albright syndrome mutation; Potency, µM (highest dose often 76.9 µM), for the others: top-dose activity change, negative = inhibition, hits mostly inhibitors; gsp-mutant cells, cAMP HTRF, 30 min; control for the full effect not named in the record; 340,000 tested, 0.4% active; active = falling curve of any shape with a large fitted effect; inconclusive = falling curve, mostly with a smaller effect; inactive = flat or rising curve; cell line not stated here;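 further: intracellular cAMP measured with PDE inhibitor Ro 20-1724 present during compound exposure; potency means the concentration at half of the fitted maximal effect; on the % scale 0 is the no-effect control and ±100 the full control effect; nearly all actives have a fitted effect of over 65% in size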
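HTRF cAMP read-out (cAMP-d2 plus anti-cAMP antibody-K in lysis buffer, 30 min RT). Before lysis, cells are exposed to compounds with […] for 30 min at 37C in DPBS containing Ca/Mg, BSA and Tween 20.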
Menin-MLL FL inh – inhibitors of human menin-MLL interaction, wild-type MLL peptide; FP activity change, % at 61.4 µM; Fluorescence polarization, fluorescein-MLL peptide displacement from menin; 290,000 tested, under 10 active; inconclusive = falling polarisation curve, or a change in total fluorescence; inactive = total fluorescence flat and polarisation flat or rising; no compound was filed as active; the % refers to the polarisation; negative = inhibition;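 further: % of control where 0% means no effect; inhibitors lower the polarisation; unlabelled MLL peptide was the positive control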
ClpP mod – qHTS Assay for Activators of ClpP; ATP-dependent Clp protease proteolytic subunit (Bacillus subtilis (strain 168)), P80244; purified B. subtilis ClpP, FRET peptide cleavage, 20 min; Potency, µM (series often up to 57.5 µM), without a hit: at the top dose activity change, negative = active; 340,000 tested, 1.9% active; AID 651965, 2013; active = well fitted falling curve with a large enough effect; inconclusive = small, poorly fitted or top-dose-only effect; inactive = no such curve, though single readings can be large or run the other way; further: potency means the concentration at half of the fitted maximal effect; the source files actives as falling curves though it sought activators and does not explain the sign; nearly all actives have a fitted effect of over 65% in size; many hits overshoot -100%
Target sequence (P80244 whole entry, looked up): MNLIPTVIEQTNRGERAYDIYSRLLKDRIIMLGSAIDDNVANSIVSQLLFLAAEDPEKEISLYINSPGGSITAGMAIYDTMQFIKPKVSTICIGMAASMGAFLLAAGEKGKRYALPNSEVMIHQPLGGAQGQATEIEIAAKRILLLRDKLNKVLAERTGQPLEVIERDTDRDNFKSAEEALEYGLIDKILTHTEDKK
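Buffer: 100 mM Tris/HCl pH8, 100 mM KCl, 0.05% low protease BSA, 2.5% glycerol, 0.01% Tween-20. ClpP 10 microg/mL final; 20 min RT; delta FRET normalized to ADEP and DMSO controls.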
TRPV1 PAM – potentiators of human vanilloid receptor 1 (TRPV1). Q8NER1. TRPV1-expressing cells, Fluo-8 calcium influx, capsaicin EC20 potentiation; host cell line not named in the record; control for the full effect not named in the record. potentiation, % at 8.33 µM. 320,000 tested, 0.02% active. AID 540277; active means potentiation above 80%; inconclusive means 30% to 80%; inactive means below 30%; further: 0% is about no effect
Target sequence (Q8NER1 whole entry, looked up): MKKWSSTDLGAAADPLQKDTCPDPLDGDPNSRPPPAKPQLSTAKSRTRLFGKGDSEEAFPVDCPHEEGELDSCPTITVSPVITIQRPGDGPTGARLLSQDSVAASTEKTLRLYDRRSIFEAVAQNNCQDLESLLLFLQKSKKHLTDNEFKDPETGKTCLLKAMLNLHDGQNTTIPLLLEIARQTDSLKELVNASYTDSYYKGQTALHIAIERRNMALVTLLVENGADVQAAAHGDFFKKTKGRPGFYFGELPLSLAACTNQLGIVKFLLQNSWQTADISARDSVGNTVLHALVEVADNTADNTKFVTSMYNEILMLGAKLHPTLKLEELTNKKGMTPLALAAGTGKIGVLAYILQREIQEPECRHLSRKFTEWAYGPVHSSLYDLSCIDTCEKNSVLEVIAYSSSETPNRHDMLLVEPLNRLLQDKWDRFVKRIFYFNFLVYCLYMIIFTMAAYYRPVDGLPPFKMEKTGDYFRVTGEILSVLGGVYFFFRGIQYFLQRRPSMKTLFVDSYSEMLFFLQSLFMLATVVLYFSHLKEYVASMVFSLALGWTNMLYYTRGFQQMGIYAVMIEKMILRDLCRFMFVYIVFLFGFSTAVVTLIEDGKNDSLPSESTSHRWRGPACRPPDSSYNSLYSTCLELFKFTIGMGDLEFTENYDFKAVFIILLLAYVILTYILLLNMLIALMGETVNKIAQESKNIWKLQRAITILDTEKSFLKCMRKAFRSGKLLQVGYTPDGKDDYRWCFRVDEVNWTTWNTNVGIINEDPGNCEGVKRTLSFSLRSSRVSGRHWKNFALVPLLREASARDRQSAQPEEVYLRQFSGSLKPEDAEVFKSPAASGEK
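TRPV1-expressing cells were cultured overnight at 35.5C and loaded with Fluo-8 calcium dye for 40 to 90 min at room temperature. After a 10 s baseline, compound was added and calcium influx was read kinetically for 3 min (ex 480/em 520 nm).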
CtBP-E1A inh – CtBP/E1A binding inhibition. AlphaScreen GST-E1A/His-CtBP binding, 1536-well; stronger effect = lower value; control for the full effect not named in the record. 340,000 tested, 0.49% active. activity change, % (test concentration not listed); in the data active means activity change below about -65%; inconclusive means about -30% to -65%; inactive means above about -30%; further: on the % scale 0 is the no-effect control and ±100 the full control effect; compound concentration not given in the record
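AlphaScreen with 125 nM GST-E1A and 125 nM His-CtBP (5X stocks) in Tris pH 8.0, 300 mM NaCl, BSA, Tween 20, TCEP. Compounds preincubated 2 h at 37 deg C, then glutathione donor/nickel acceptor beads added for 1 h at 37 deg C in dark.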
Sfp inh – inhibitors of Bacillus subtilis Sfp phosphopantetheinyl transferase. Q9F4F7. Biochemical Sfp PPTase activity, qHTS. Potency, µM, without a hit: max response, negative = inhibition, most hits filed as inhibitors. 310,000 tested, 3.5% active. AID 1490; active means well fitted inhibition curve with a large enough effect; inconclusive means small, poorly fitted or top-dose-only effect, or another doubt; inactive means no such curve, though single readings can be large or run the other way;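 further: the enzyme is Sfp with the accession as filed and its product quenches rhodamine fluorescence; potency means the concentration at half of the fitted maximal effect; 0% = enzyme reaction without inhibitor and -100% = no enzyme wells; top concentration of the series not given in the record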
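Reaction rates are the 30-min fluorescence difference (ex 525, em 598 nm) in wells containing 15 nM Sfp, 5 uM rhodamine-CoA and 12.5 uM BHQ-2-YbbR at pH 7.6 with 10 mM MgCl2.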
An asterisk follows results filed as active; ? = inconclusive; . = no result given; & = joins results of further samples; [ ] = another dose, or the depositor's remark.

SMILES	gsp ag	gsp antagonist	Menin-MLL FL inh	ClpP mod	TRPV1 PAM	CtBP-E1A inh	Sfp inh
CCC(C(=O)Nc1nc(C)cs1)c1ccccc1 (centres undefined)	17.4%	-8.2%	0.6	-0.9%	-4.4	-1.0	17.4%
CCOc1cc2c(cc1OCC)C(C(=O)O)C(c1ccc(OC)c(O)c1)N(C)C2=O (centres undefined)	-41.9%[inhibitor]	7.6%	3.5	-1.4%	-1.1	6.2	4.4%
NC(=O)c1cc(S(=O)(=O)Nc2ccc(OC(F)(F)F)cc2)cs1	-19.4%	-0.1%	-0.1	1.2%	29.3	.	16.4%
CC(=O)Nc1ccc(NC(=O)CSc2ccccn2)cc1	9.7%[15.4 µM]	-13.3%	2.1	-2.8%	2.8	-3.0	-13.4%
CC(C)/C(=N/Nc1ccccc1[N+](=O)[O-])c1ccccc1	?	-2.6%	-1.6	.	-10.7	?	?
COCCNC(=O)/C(C#N)=C/c1nc(N(C)C)n(-c2ccc(F)cc2)c1Cl	4.6%	6.0%	-2.4	1.3%	0.6	2.7	6.9%
COc1ccc([N+](=O)[O-])cc1NC(=O)c1cn(-c2ccc(Cl)cc2)c(=O)c2ccccc12	17.0%	-0.6%	1.9	-6.2%	-0.4	4.8	13.9%
COc1ccc(NC(=O)CCSc2ccc3ccccc3n2)cc1	22.0%	16.4%	7.2	-1.4%	-16.5	4.1	6.7%
Cc1c(C(=S)Nc2ccccc2)cnn1-c1ccc([N+](=O)[O-])cc1	-31.3%[inhibitor]	?	3.8	0.8%	-14.5	-17.6	-13.7%
CCN(CC)CCCCCCCCOC(=O)c1cc(OC)c(OC)c(OC)c1	.	13.5%	-1.7	-6.9%	2.5	-1.8	16.6%&-1.5%
CCOc1ccc(/C=C/C(=O)N(CC)CC(=O)Nc2ccc3c(c2)OCCO3)cc1OCC	-3.1%	-23.7%	.	-24.6%	-6.9	10.5	11.2%
COc1ccc(NC(C)=O)cc1S(=O)(=O)NCc1ccc2c(c1)OCO2	-7.3%	.	.	-1.7%	.	-1.2	.
C=C1CCN([C@@H](CC(C)C)C(=O)Nc2ccc(OC)cc2)S(=O)(=O)c2ccccc21	29.7%	-4.7%	.	-0.6%	.	2.4	.
CN(C)CCCCCNCCCNC(=O)/C=N\O	-38.4%[inhibitor]	4.2%	-1.5	-2.3%	7.5	-3.9	14.0%
O=C(CSc1ncnc2c1nnn2-c1ccc(F)cc1)NCc1ccco1	2.1%	1.3%	0.1	-1.2%	-22.0	2.1	4.5%
O=C(c1ccco1)N1CCN(C2CC(=O)N(c3ccc(F)c(Cl)c3)C2=O)CC1 (centres undefined)	-6.5%[15.4 µM]	-20.8%	1.6	.	6.5	7.8	10.1%
CCOC(=O)c1cc(-c2ccc(C)o2)nn1CCC#N	16.2%	8.7%	-1.0	-2.2%	7.3	1.2	-21.0%
CCOc1ccc(Br)cc1-c1noc(-c2cccs2)n1	5.5%	8.2%	6.0	3.7%	18.1	16.5	9.5%
Cc1ccc(NC(=O)c2oc3ccccc3c2COC(C)C)cc1S(=O)(=O)N1CCOCC1	-5.6%[15.4 µM]	-23.3%	.	-0.8%	.	10.4	.
O=C(Nc1cccc([N+](=O)[O-])c1)C1C2CC/C=C\CCC21 (centres undefined)	-0.8%[15.4 µM]	-9.7%	-0.9	.	-14.0	7.4	12.3%
Cc1[nH]c2ccccc2c1CCN(Cc1cccnc1)C(=S)Nc1ccc(F)cc1	-1.4%	-30.6%	0.0	-1.1%	?	-0.2	-2.4%
CCC1(CC)C(=O)C(C)(C)C(=O)OC1c1ccccn1 (centres undefined)	-8.3%	2.8%	1.6	0.9%	-0.9	10.9	2.0%
NC(=O)c1ccc[n+](Cc2ccc(-c3ccccc3)cc2)c1	9.1%[15.4 µM]	17.6%	2.2	-0.6%	17.9	-12.2	14.6%
CN(C(=O)CCN1C(=O)S/C(=C\c2ccccc2)C1=O)C1CCS(=O)(=O)C1 (centres undefined)	1.9%	-7.2%	-2.6	-1.4%	-7.2	.	6.3%
CCn1c(SCC(=O)N2CCCc3ccccc32)nnc1-c1cccs1	-16.2%	-6.4%	0.4	-0.8%	4.7	10.5	6.4%

Of the compounds above, 5 have fluorine.
SMILES	gsp ag	gsp antagonist	Menin-MLL FL inh	ClpP mod	TRPV1 PAM	CtBP-E1A inh	Sfp inh
NC(=O)c1cc(S(=O)(=O)Nc2ccc(OC(F)(F)F)cc2)cs1	-19.4%	-0.1%	-0.1	1.2%	29.3	.	16.4%
COCCNC(=O)/C(C#N)=C/c1nc(N(C)C)n(-c2ccc(F)cc2)c1Cl	4.6%	6.0%	-2.4	1.3%	0.6	2.7	6.9%
O=C(CSc1ncnc2c1nnn2-c1ccc(F)cc1)NCc1ccco1	2.1%	1.3%	0.1	-1.2%	-22.0	2.1	4.5%
O=C(c1ccco1)N1CCN(C2CC(=O)N(c3ccc(F)c(Cl)c3)C2=O)CC1 (centres undefined)	-6.5%[15.4 µM]	-20.8%	1.6	.	6.5	7.8	10.1%
Cc1[nH]c2ccccc2c1CCN(Cc1cccnc1)C(=S)Nc1ccc(F)cc1	-1.4%	-30.6%	0.0	-1.1%	?	-0.2	-2.4%

(listing goes on)
SMILES	gsp ag	gsp antagonist	Menin-MLL FL inh	ClpP mod	TRPV1 PAM	CtBP-E1A inh	Sfp inh
C=CCOc1ccc(C2C(C(=O)c3ccc(C)o3)=C(O)C(=O)N2Cc2cccnc2)cc1 (centres undefined)	22.5%[15.4 µM]	4.3%	3.6	.	-5.0	-11.5	-22.1%
COc1ccc(NC(=O)C2CC(=O)N(c3ccccc3Cl)C2)c(OC)c1 (centres undefined)	-0.3%	0.5%	-4.4	.	27.7	-1.3	21.1%
O=C(Cn1c(=O)cnc2ccccc21)Nc1cc(Cl)ccc1N1CCOCC1	-4.4%[15.4 µM]	-8.7%	.	0.7%	.	9.5	.
COC(=O)c1cc(S(=O)(=O)Nc2cccc(OC)c2)cn1C	14.7%	2.1%	1.8	-1.6%	20.3	1.5	-25.4%
Brc1ccc(C2Nc3cccc4cccc(c34)N2)cc1	12.2%	1.5%	.	.	.	-1.1	.
CC(C)(C)OC(=O)N1CCCC(C(=O)Nc2ccc(C(=O)N3CCOCC3)cc2)C1 (centres undefined)	-2.5%	8.0%	.	0.5%	.	3.2	.
CCN(CC(=O)Nc1ccc(NC(C)=O)cc1)C(=O)c1cccc(Oc2ccccc2)c1	-0.6%	3.3%	.	0.6%	-6.7	-3.6	.
COc1ccc(-c2cc(C(=O)Nc3ccc(S(=O)(=O)Nc4ncccn4)cc3)c3ccccc3n2)cc1	3.6%	-19.7%	9.5	-14.4%	-0.3	-4.3	19.4%
O=C(Nc1ccccn1)c1ccco1	-25.8%	8.3%	8.0	1.5%	-9.4	9.2	15.3%
COc1ccccc1C(=O)Nc1cccc(Oc2c(F)c(F)c(F)c(F)c2F)c1	?	-24.7%	3.6	.	4.4	19.8	11.2%
COc1ccccc1NC(=O)/C(C#N)=C/c1c(C)nn(-c2ccc(F)cc2)c1Cl	4.1%	15.8%	3.4	-3.5%	2.9	0.0	5.1%
Cc1ccc(C(=O)COC(=O)CN2C(=O)C3CC=CCC3C2=O)cc1[N+](=O)[O-] (centres undefined)	-34.6%[inhibitor]	-2.1%	.	0.1%	.	-0.8	.
CCOc1cc(/C=N/NC(=S)Nc2ccccc2C(F)(F)F)ccc1OCC(=O)N1CCOCC1	-35.1%[inhibitor]	-10.1%	4.9	-3.6%	-7.4	-18.7	-4.5%
Cc1cc(NC(=O)c2cc3n(n2)C(C(F)(F)F)CC(c2ccco2)N3)n(-c2ccccc2)n1 (centres undefined)	-11.0%	3.8%	4.5	0.8%	5.4	-4.1	?
CCOc1ccc(N(C(=O)Nc2ccccc2)C2=NCCC2)cc1	-15.0%	-14.4%	-1.8	0.6%	-5.6	6.8	-13.7%
CCCCCn1c(CCNC(=O)CCC)nc2ccccc21	13.9%	3.3%	1.7	1.1%	-16.1	0.6	16.6%
CN(C)S(=O)(=O)c1cccc(NC(=O)c2cc(-c3cccs3)nc3ccccc23)c1	17.1%	4.3%	-2.0	15.8µM*	13.9	-10.4	28.7%
COc1ccc2c(c1)CCCC21NC(=O)N(CC(N)=O)C1=O (centres undefined)	-26.1%	7.9%	0.7	-0.8%	5.4	3.7	13.2%
Cn1nc(C(C)(C)C)c([N+](=O)[O-])c1C(=O)NC(C)(C)C	-15.8%[15.4 µM]	14.4%	3.6	-1.4%	-10.9	11.5	-1.6%
CN1C(=O)CC(C(=O)O)SC1=Nc1cccc(C(F)(F)F)c1 (centres undefined)	-2.0%	8.0%	-12.5	-1.1%	3.1	-0.6	-13.7%
c1ccc(-c2nc3ccccc3nc2N2CCOCC2)cc1	-30.2%[inhibitor]	-7.8%	-4.3	-6.7%	-42.6	10.9	3.9%
O=C(c1ccco1)N1CCN(Cc2nc3ccccc3[nH]2)CC1	1.0%	7.1%	.	-1.4%	.	.	.
O=C(Nc1ccc(S(=O)(=O)NCCc2ccccc2)cc1)c1ccncc1	-5.7%	4.5%	.	0.7%	8.2	3.2	3.3%
O=C(O)c1cccc(S(=O)(=O)Nc2ccc(O)cc2Sc2nc3ccccc3s2)c1	11.1%	8.1%	-0.8	-2.5%	-7.1	1.5	-29.2%
C[C@H]1CN([C@@H](C)CO)C(=O)CCCn2nncc2CO[C@@H]1CN(C)C(=O)c1ccccc1	-7.7%	.	.	0.4%	.	2.1	.
C/C(=N\NC(=O)c1nnn(-c2nonc2N)c1CN1CCCCCC1)c1ccc(Br)cc1	-8.3%[15.4 µM]	-8.3%	-0.5	1.2%	-4.8	-0.4	4.2%
COc1ccc([C@@H]2[C@@H]3C(=O)N(C(C)(C)C)C(=O)[C@@H]3[C@]3(C)C(=O)N(c4ccccc4)C(=O)N23)cc1	-47.6%[inhibitor]	-5.0%	4.6	-3.5%	8.6	.	15.8%

Compounds were not picked by outcome. About 5.3% of those tested had a hit in this group.
